Screening results deposited in PubChem by several laboratories.
E coli growth: blocks Escherichia coli growth; OD600, 23 h; active compounds read low; OD600 absorbance (concentration not given with the values); actives 0.21% (n = 330,000); AID 1053175;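 active means OD600 absorbance below the run mean of sample wells minus 3.6 SD, in any replicate, cut at about 0.56 in these data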;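 further: stock transfer was 300 nL into about 60 µL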
UCH37 DUB inh: blocks the human deubiquitinase UCH37. actives 0.33% (n = 330,000). AID 588478. Q9Y5K5. inhibition, % (concentration not given with the values). purified proteasome/UCH37, Ub-AMC cleavage fluorescence;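 active means mean of two replicates above 20%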;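 further: 0% = compound-free wells with enzyme and 100% = wells lacking proteasome; stock transfer was 100 nL into about 20 µL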
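assay system = human UCH37 enzyme supplied as purified proteasome complex | amount = proteasome at 0.15 nM in the dispensed enzyme solution | schedule = 30 min compound-proteasome preincubation then 25 min substrate reaction, room temperature | measured by = fluorescence, ex 355 nm, em 460 nm | benchmarks = no-proteasome wells (full inhibition) and compound-free wells (no inhibition)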
FGF22 binding: FGF22 (human) thermal shift binding; actives 1.5% (n = 340,000); calls only at 9.99 µM; recombinant FGF22 thermal shift, SYPRO orange fluorescence; percent of sucrose octasulfate shift, DMSO zero;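 active means melting point raised past a set limit in the mean and every replicate; inconclusive means no clear call; three in four hits are not shown here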
HNF4A DNA FP: change in binding of human HNF4 alpha to DNA; P41235; HNF4a-FITC DNA binding, fluorescence polarization, 1 h; activity change, % at 10 µM; actives 0.3% (n = 360,000); AID 1224865; in the data active means activity change above about 30%, passing the limit was not always enough;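 further: controls were the assay level and a saturating level of protein; the project sought stronger binding though the title names inhibitors; some compounds called inactive have numbers as strong as hits; positive values seem to mean higher polarization but the record does not say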
Target sequence (P41235 whole entry, looked up): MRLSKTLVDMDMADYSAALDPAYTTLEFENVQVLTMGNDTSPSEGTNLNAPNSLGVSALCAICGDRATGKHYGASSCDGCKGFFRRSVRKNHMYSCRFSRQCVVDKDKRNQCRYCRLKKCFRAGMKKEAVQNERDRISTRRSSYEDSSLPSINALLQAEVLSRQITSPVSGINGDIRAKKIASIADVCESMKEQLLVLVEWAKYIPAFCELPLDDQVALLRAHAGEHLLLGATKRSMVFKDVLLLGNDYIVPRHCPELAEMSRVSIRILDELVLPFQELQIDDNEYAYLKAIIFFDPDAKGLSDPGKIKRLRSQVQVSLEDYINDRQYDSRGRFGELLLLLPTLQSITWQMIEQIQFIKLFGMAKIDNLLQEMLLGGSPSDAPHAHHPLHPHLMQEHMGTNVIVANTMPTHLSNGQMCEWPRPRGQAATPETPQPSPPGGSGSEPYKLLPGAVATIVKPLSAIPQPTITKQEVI
Vif A3G: inhibitors of Vif binding to APOBEC3G peptide, primary screen, biochemical, TR-FRET, GST-Vif 1-94, biotin-A3G peptide, dose response retest (AID 1117319); TR-FRET GST-Vif / biotin-A3G peptide binding; higher % means a stronger effect; test concentration not given here; strong numbers were not always called active; inhibition, %; hits with a dose series show IC50 in µM; actives 0.57% (n = 260,000);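 active means above the screen mean plus three standard deviations and confirmed in dose response; inconclusive means results disagree or hit not tested in dose response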;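 further: Vif residues 1-94 fused to GST binding biotinylated APOBEC3G peptide 110-148; 0% = full assay without inhibitor and 100% = GST in place of GST-Vif; retest series ran down from 100 µM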
MLL AF4-AF9 inh: blocks AF4 peptide binding to human AF9; P42568; inhibition, % at 10 µM; AlphaScreen, biotin-AF4 peptide binding to FLAG-AF9; AID 651704; actives 0.47% (n = 350,000);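 active means every replicate reaching a set inhibition limit, whatever the replicate mean, cut at about 25% in these data; inconclusive means mean inhibition reaches that limit but some replicates miss it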;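 further: 0% = plate neutral control median and 100% = total signal loss; the record names both 10 and 1 µM as test concentration; the first replicate is given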
Target sequence (P42568 whole entry, looked up): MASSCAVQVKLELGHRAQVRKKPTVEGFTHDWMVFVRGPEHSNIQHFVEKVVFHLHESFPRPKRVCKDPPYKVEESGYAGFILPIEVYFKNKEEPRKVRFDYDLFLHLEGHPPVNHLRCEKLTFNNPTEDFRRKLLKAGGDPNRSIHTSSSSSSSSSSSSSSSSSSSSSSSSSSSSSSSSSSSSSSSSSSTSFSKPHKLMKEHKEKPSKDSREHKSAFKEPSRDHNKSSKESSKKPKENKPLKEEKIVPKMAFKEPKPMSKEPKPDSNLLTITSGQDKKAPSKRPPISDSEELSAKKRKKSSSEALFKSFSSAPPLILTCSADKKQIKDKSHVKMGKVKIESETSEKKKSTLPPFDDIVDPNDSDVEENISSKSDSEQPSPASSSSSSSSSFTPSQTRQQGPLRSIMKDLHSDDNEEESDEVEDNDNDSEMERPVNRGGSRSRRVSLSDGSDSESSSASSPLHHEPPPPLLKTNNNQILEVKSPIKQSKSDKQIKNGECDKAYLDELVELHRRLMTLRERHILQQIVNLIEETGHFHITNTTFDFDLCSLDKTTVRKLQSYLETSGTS
RanGTP-Impb inh: disruptors of Ran-importin-beta complex formation – biochemical, FRET, CFP-Ran, YFP-importin-beta, homogeneous, primary screen | actives 1.1% (n = 300,000) | inhibition, % (test concentration not listed) | cell-free CFP-Ran/YFP-importin-beta FRET ratio;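 active means most replicates above 15%; inconclusive means exactly half above 15%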;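 further: 0% = DMSO wells and 100% = Ran loaded with GDP instead of GTP; wells of about 40 µL received 100 nL stock; the first replicate is given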
Active calls of the source: *; i = inactive; ? = inconclusive; . = not tested or not shown; & = joins results of further samples. Some of the compounds tested; the hit share may differ from the screen's.

Structure	E coli growth	UCH37 DUB inh	FGF22 binding	HNF4A DNA FP	Vif A3G	MLL AF4-AF9 inh	RanGTP-Impb inh
COc1cccc(NC(=O)CN(C)C(=O)CCNC(=O)c2ccccc2OC)c1	0.66	0.9	i	-0.3	6%	-11	.
O=C(NCc1ccccc1)C1Cc2ccccc2CN1C(=O)c1ccco1 (stereo not drawn)	0.71	-2.7	i	1.2	2%	0.7	-2.0
COC(=O)c1ccc(C(=O)OC)c(NC(=O)Nc2ccc3c(c2)OCO3)c1	0.69	-1.1	.	1.1	4%	.	-1.3
OCCN1CCN(CCCc2c3c(cc4c2CCC4)CCC3)CC1	0.71	2.3	i	1.8	13%	5.5	3.2
NC(=O)C1CCN(C(=O)CN2CCN(c3cccc(C(F)(F)F)c3)CC2)CC1	0.71	2.3	.	0.3	5%	.	-1.0
Cc1cc(C)n2nc(SCC(=O)c3ccccc3)nc2n1	0.69	0.6	i	-0.1	-7%&25%	5.3	0.6
Cc1cc(NC(=O)C2CCCCC2)n(-c2nc3ccccc3[nH]2)n1	0.79	6.3	.	-0.7	2%	.	6.1
Cc1ccc(S(=O)(=O)NCc2ccccc2)cc1C(=O)N(C)CC(=O)Nc1c(Cl)cccc1Cl	0.7	3.6	i	4.8	0%	1.2	4.8
COc1cccc(-c2nn(-c3ccccc3)cc2C(=O)Nc2nccs2)c1	0.76	-1.5	.	-2.0	-1%	.	-2.3
N#Cc1ccc(OCC(=O)OCC(=O)Nc2sccc2C(N)=O)cc1	.	.	i	-0.6	-10%	-1.0	.
CC1CCN(S(=O)(=O)CCNC(=O)c2ccc3c(c2)OCO3)CC1	0.7	2.2	i	2.6	0%	-1.6	2.4
CN1CCN(/N=C2/C(=O)Nc3ccc([N+](=O)[O-])cc32)CC1	.	.	i	-5.4	.	5.3	?
O=C(Nc1ccccc1C(=O)N1CCCC1)C1COc2ccccc2O1 (stereo not drawn)	0.72	-0.7	.	1.0	1%	0.8	3.6
CCOC(=O)C1CCCN(C(=O)c2ccc(C)c([N+](=O)[O-])c2)C1 (stereo not drawn)	0.68	6.3	.	0.1	10%	.	?
Nc1nc(SCC(=O)Nc2ccc([N+](=O)[O-])cc2)[nH]c(=O)c1NC(=O)c1ccc(Br)cc1	0.68	3.8	i	4.0	.	-1.0	1.4
O=C(CC1CCCC1)NCCS(=O)(=O)N1CCN(c2ccccc2F)CC1	0.64	3.7	i	4.5	0%	3.3	0.9
COC(=O)[C@H](CCSC)NC(=O)NCc1cccs1	0.64	2.3	.	-3.0	5%	.	-0.1
CC(C)(C)OC(=O)N1CCC(C(=O)Nc2ccc(C(=O)N3CCCC3)cc2)CC1	.	.	i	2.1	1%	-0.9	.
Cc1ccc2c(c1)-c1cc(C)ccc1C2=O	0.71	1.5	i	-0.1	-3%	-1.0	.
CCOc1ccc(S(=O)(=O)Nc2cccc(C(=O)N(C)CC(=O)Nc3cccc(OC)c3)c2)cc1	0.63	-0.1	i	-1.6	-1%	-41	4.4
CCN(CC(=O)Nc1c(F)cccc1F)C(=O)c1ccc(=O)n(Cc2ccccc2)n1	0.71	2.2	i	0.2	.	-0.2	-0.3
CSc1ccccc1NC(=O)CN(C)CC(=O)Nc1cccc(Br)c1	0.7	3.2	i	0.4	4%	-0.6	8.2
CC(C)Cc1nnc(NC(=O)CN2C(=O)C3CCCCC3C2=O)s1 (stereo not drawn)	0.69	0.9	i	2.6	-6%	-1.6	-0.7
CCN(CC)S(=O)(=O)c1ccc(O)c(NC(=O)COc2ccc(S(=O)(=O)N3CCOCC3)cc2)c1	0.67	0.7	i	-1.5	.	2.5	.
CCOc1ccc(-c2nc(S(=O)(=O)c3ccccc3)c(N3CCC(C(N)=O)CC3)o2)cc1	0.7	2.9	i	-2.5	.	1.2	2.9
C[C@H](NC(=O)OCc1ccccc1)c1nnc([C@H](Cc2ccccc2)NC(=O)OC(C)(C)C)o1	.	1.9	i	0.9	.	2.7	3.7
O=C(c1cc2ccccc2oc1=O)N(c1ccccc1)C1C=CS(=O)(=O)C1 (stereo not drawn)	0.75	2.8	.	3.2	.	.	-5.7
O=c1cc(-c2ccc(Cl)cc2)nc(N2CCN(c3ccccc3)CC2)[nH]1	0.72	-30	i	5.6	.	-4.5	-1.5
Cc1cccc(NC(=O)CSc2nnc(-c3n[nH]c4ccccc34)o2)c1	0.71	3.0	i	3.3	-3%	-6.5	?
c1ccc(N2CCN(c3ncccn3)CC2)cc1	0.77	0.6	.	-1.4	2%	.	1.5
COC(=O)C[C@@H]1CC[C@H](NC(=O)Cc2ccccn2)[C@@H](CO)O1	.	.	.	2.0	.	2.1	.
CCC1(C)N([O-])C(C)=C(c2ccccc2)[N+]1=O (stereo not drawn)	0.78	5.6	.	-2.1	5%	.	-1.9
N#Cc1ccsc1NC(=O)CN1C(=O)NC2(CCCCC2)C1=O	0.65	-0.7	i	13	.	2.0	-0.8
CCCCn1c(N)c(N(CCOC)C(=O)c2c(-c3ccccc3)noc2C)c(=O)[nH]c1=O	0.71	1.4	i	-0.3	-8%	-1.4	4.2
CC(NC(=O)CSc1n[nH]c(N)n1)c1ccccc1 (stereo not drawn)	0.7	0.0	i	0.6	.	-2.2	0.7
[O-]/C(=C(\C(=S)NCc1ccccc1)[n+]1ccccc1)c1ccc(Cl)cc1	0.66	3.6	i	6.9	5%	-11	0.5

3 structures already listed, ordered by molecular weight, low to high:
Structure	E coli growth	UCH37 DUB inh	FGF22 binding	HNF4A DNA FP	Vif A3G	MLL AF4-AF9 inh	RanGTP-Impb inh
CC(NC(=O)CSc1n[nH]c(N)n1)c1ccccc1 (stereo not drawn)	0.7	0.0	i	0.6	.	-2.2	0.7
COC(=O)C[C@@H]1CC[C@H](NC(=O)Cc2ccccn2)[C@@H](CO)O1	.	.	.	2.0	.	2.1	.
C[C@H](NC(=O)OCc1ccccc1)c1nnc([C@H](Cc2ccccc2)NC(=O)OC(C)(C)C)o1	.	1.9	i	0.9	.	2.7	3.7

Given as labelled records: entries from further up.
> c1ccc(N2CCN(c3ncccn3)CC2)cc1
- E coli growth = 0.77
- UCH37 DUB inh = 0.6
- FGF22 binding = .
- HNF4A DNA FP = -1.4
- Vif A3G = 2%
- MLL AF4-AF9 inh = .
- RanGTP-Impb inh = 1.5
> [O-]/C(=C(\C(=S)NCc1ccccc1)[n+]1ccccc1)c1ccc(Cl)cc1
- E coli growth = 0.66
- UCH37 DUB inh = 3.6
- FGF22 binding = i
- HNF4A DNA FP = 6.9
- Vif A3G = 5%
- MLL AF4-AF9 inh = -11
- RanGTP-Impb inh = 0.5

Further entries follow:
Structure	E coli growth	UCH37 DUB inh	FGF22 binding	HNF4A DNA FP	Vif A3G	MLL AF4-AF9 inh	RanGTP-Impb inh
O=c1[nH]cnc2c1c(-c1ccccc1)cn2-c1ccc(Br)cc1	0.69	-2.1	i	-0.1	8%	-4.2	-2.1
CC1Cc2ccccc2N1C(=O)C1CC(=O)N(c2ccccc2)C1 (stereo not drawn)	0.7	0.2	i	0.1	.	-0.9	0.5
COc1ccc(SCCN2CC[C@@H](C(C)(C)C)CCC2=O)cc1	.	1.8	i	-0.4	.	1.5	.
CN=C(Nc1ccc(C)c(C)c1)SC1CC(=O)N(c2ccc(OC)cc2)C1=O (stereo not drawn)	0.71	3.3	i	-0.8	.	0.1	3.0
COc1ccc(CC(=O)Nc2ccc(-c3noc(-c4cccc(OC)c4)n3)cc2)cc1	0.78	-0.3	.	-4.5	-8%	.	-0.5
Fc1cccc(Cc2c(-c3ccco3)nc3c4ccccc4ccn23)c1	.	.	i	16	.	9.3	.
CN(CC(=O)Nc1ccc(Cl)c(C(F)(F)F)c1)C(=O)COc1cccc2cccnc12	.	.	i	-4.5	12%	-1.5	.
O=C1c2ccccc2S(=O)(=O)N1CCS(=O)(=O)c1ccc(F)cc1	0.57	1.9	i	1.9	-7%	-1.1	5.0
Cc1cc(=O)n2c3ccccc3n(CC(O)CN3CCCCC3)c2c1C#N (stereo not drawn)	0.66	-19	.	0.8	4%	.	3.5
Cc1cccc(CN2CCN(C(=O)c3cccc4ccccc34)CC2)c1	0.66	4.3	i	0.4	.	2.2	-2.5
O=C(Nc1nc(-c2ccccc2Cl)cs1)c1cccnc1	0.72	-5.8	.	-2.0	4%	.	-3.8
CC(=O)Nc1ccc(NC(=O)COc2cccc3c2OC(C)(C)C3)cc1	0.72	2.3	i	4.1	1%	-2.5	7.7
COc1cccc(CNC(=O)c2cc(S(=O)(=O)N3CCCCC3)ccc2C)c1	.	.	i	-1.0	.	2.8	.
CC(C)(C)OC(=O)N[C@@H](Cc1c[nH]c2ccccc12)c1nnc(SCC(N)=O)o1	0.72	2.2	.	-0.1	-2%	.	-1.0
C[C@H](CO)N1C[C@H](C)[C@@H](CN(C)S(=O)(=O)c2ccccc2)Oc2c(NC(=O)CCC(F)(F)F)cccc2C1=O	0.77	-1.9	i	1.9	.	-1.9	.
Cc1nc([N+](=O)[O-])nn1C12CC3CC(CC(Cl)(C3)C1)C2	.	.	.	3.7	6%	.	-2.4
Cc1cc(C(=O)CN2C(=O)NC(c3ccccc3)(c3ccccc3)C2=O)c(C)n1Cc1ccccc1	0.76	-1.1	.	2.4	16%	.	-2.3
O=C(COC(=O)c1ccccc1F)c1ccc(-n2nncc2-c2ccco2)cc1	0.73	0.8	.	0.1	5%	.	?
Cc1cccc(-n2c(CNC(=O)c3ccc(S(=O)(=O)N4CCCC4)cc3)n[nH]c2=S)c1	0.72	2.7	i	-3.1	4%	3.4	-2.0
Cc1oc2cc3oc(=O)c(CCC(=O)N4C[C@H]5C[C@@H](C4)c4cccc(=O)n4C5)c(C)c3cc2c1C	0.69	-27	i	0.9	.	-12	0.9
O=C(CS(=O)(=O)c1ccc(F)cc1)N1CCN(c2ccccc2)CC1	0.68	3.6	i	1.0	-1%	-14	-1.1
Cc1cc(C)n2nc(SCc3ccccc3)nc2n1	0.62	4.3	i	-4.7	23%	1.1	6.0
CCn1c(=O)cc(C(=O)OC)sc1=Nc1ccc(F)c(F)c1	0.76	0.6	i	-0.8	0%	5.0	2.6
CN1/C(=C/C2CC(=O)N(c3cccc4ccccc34)C2=O)C(C)(C)c2ccccc21 (stereo not drawn)	0.68	2.7	.	18	14%	.	-0.4
COc1ccccc1/C=C/C(=O)NCCC1=CCCCC1	0.69	-3.3	i	-1.7	.	-3.7	-0.8
CCCc1cc(C(=O)Nc2cc(OC)c(Cl)cc2OC)no1	0.74	-4.1	i	1.5	-1%	-7.9	4.3
COC(=O)Nc1nc2ccc(SC(C)C)cc2[nH]1	0.72	2.0	i	1.2	.	-1.9	.
CCCS(=O)(=O)N1CCN=C1SCc1ccc(F)cc1	0.72	5.0	i	-2.4	2%	0.5	2.3
NC(=O)C1(S(=O)(=O)c2ccccc2)CCCCC1	0.73	-1.0	.	-0.9	-2%	.	-2.8
O=C(CSc1nnc2ccccn12)Nc1cccc(S(=O)(=O)N2CCOCC2)c1	0.66	2.8	.	1.4	.	.	1.8
CC(C)C[C@H]1CN([C@@H](Cc2ccccc2)CN2CCC[C@@H]2CN2C(=O)C(=O)NC[C@@H]2Cc2ccc(O)cc2)C(=O)C(=O)N1CCc1ccccc1	.	.	i	-3.4	.	0.6	.
O=C(c1ccc2c(c1)OCCO2)C1CCN(C(=O)c2ccc(F)c(F)c2)CC1	0.7	1.3	.	-1.4	1%	.	5.3
CC(NCc1ccc(S(N)(=O)=O)cc1)C(=O)N1c2ccccc2CC1C (stereo not drawn)	0.68	0.7	i	3.7	15%	5.1	8.8
O=c1ccc2ccc(Oc3ccc(Cl)cc3[N+](=O)[O-])cc2o1	0.68	3.9	i	-0.6	.	6.2	0.2
